LT uptake inh = inhibitors of anthrax lethal toxin internalization. Cells, anthrax lethal toxin internalization, FRET ratio (460/530). Potency, µM (top dose mostly 40 µM), for the others: top-dose activity change, negative = inhibition, usual class: inhibitors. AID 912. hit rate 0.67% among 70,000; active = well fitted falling ratio curve with the 530 nm signal flat; inconclusive = other ratio curves, or a change in one channel alone; inactive = flat curves in the ratio and both channels; the % refers to the ratio; further: on the % scale 0 is the no-effect control and ±100 the full control effect; nearly all actives have a fitted effect of over 50% in size; tested in ME-180 cells; beta-lactamase reporter
Prx2 Sm inh = Schistosoma mansoni Prx2 inhibition; hit rate 0.07% among 65,000; Potency, µM; S. mansoni Prx2 activity coupled to TGR/GSH (TGR is thioredoxin glutathione reductase), NADPH fluorescence loss, qHTS; some inactives read as strong as hits; active means full or partial inhibition curve with a strong effect at the top dose; inconclusive means weaker partial or single-point curve; inactive means no accepted curve; further: series up to 57 µM; many of its hits are not listed in these tables
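qHTS, coupled TGR/Prx2 format; 15 min compound preincubation at RT; reaction started with H2O2 (2.5 mM aliquot); kinetic NADPH fluorescence decrease, ex 365/em 450 nm.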
The depositor's hits bear a star; ? = inconclusive; · = not tested or not shown; & = joins results of further samples; [ ] = another dose, or the depositor's remark. Potency means the concentration at half of the fitted maximal effect.

Molecule,LT uptake inh,Prx2 Sm inh
c1cc(Nc2ncnc3sccc23)cc(-c2nnc3n2CCCCC3)c1,9%,>57
O=c1c2[nH]c3ccccc3c2ncn1CCN1CCNCC1,?,>57
Cn1nnnc1SCC(=O)N1c2ccccc2Sc2ccccc21,-3%,>57
O=C1CCCCCN1C(=O)c1cccc(C(=O)N2CCCCCC2=O)c1,-22%,>57
O=C(O)[C@H]1C2c3ccccc3C(c3ccccc32)[C@@H]1C(=O)NCC1CC1,-7%[8 µM],>57
O=C(O)CCC(=O)OCC1CCCO1 (centres undefined),-1%,>57
Cc1ccc(NS(=O)(=O)c2cn(C)cn2)cc1,5%,>57
CC(C)OC(=O)c1cc(NC(=O)C2C3CCC(O3)C2C(=O)O)cc(C(=O)OC(C)C)c1 (centres undefined),5%,>57
COc1ccc(C)cc1-n1nnnc1SCC1CCCCO1 (centres undefined),-5%,>57
Cc1cc(C)nc(NS(=O)(=O)c2ccc(Br)s2)c1,1%,>57
O=C(O)[C@@H]1[C@@H](C(=O)Nc2ncccn2)[C@@H]2C=C[C@@H]1O2,-4%[8 µM],>57
COc1ccc(CCCc2nnc(SCC(=O)Nc3nc(C)cs3)n2C)cc1,4%,>57
COc1ccc(C2=C(O)C(C)N(c3ccccc3)C2=N)cc1OC (centres undefined),-13%,>57
Cc1cc(C)c2c(N)c(C(=O)N3CCN(c4ncccn4)CC3)sc2n1,?,>57
COc1ccc(S(=O)(=O)N2Cc3ccccc3CC2C(=O)Nc2nccs2)cc1OC (centres undefined),-13%,>57
CCCn1c(-c2ccc(OC)cc2)nc2nc3ccccc3nc21,12%,>57
Cc1ccc(N2CCN(c3cc(C)nc4nc(C)nn34)CC2)c(C)c1,-16%,>57
CCCCC(=O)Nc1ccc(N2CCN(C(=O)CC)CC2)cc1,?,>57
CC(C)n1nc(C(=O)Nc2nc3ccc(S(C)(=O)=O)cc3s2)c2ccccc2c1=O,?,>57
COc1cc(C(=O)N2CCN(C(=O)C(Cc3cc(C)ccc3C)NC(C)=O)CC2)cc(OC)c1OC (centres undefined),14%,>57
CN1CCN(C(=O)CCC(=O)c2ccc(F)cc2)CC1,-2%,>57
O=C(c1csnn1)N1CCC2(CCCN(c3ccccc3)C2)CC1,14%,>57
CCSC1=C(C#N)C2(CCCCC2)C(C#N)=C(N)N1,1%,>57
CCOCCCNC(=O)NC12CC3CC(CC(C3)C1)C2,2%,>57
CC12CC(NC(=O)N1c1cccc(C(=O)N3CCN(c4ccccc4)CC3)c1)c1ccccc1O2 (centres undefined),-3%,>57
CCN1CCN(C(=O)CCN2C(=O)COc3ccc(C)cc32)CC1,-8%,?
CCn1c(CCNC(=O)c2cccs2)nnc1SCC(=O)c1ccc(OC)cc1,?,>57
COc1nc(N2CCOCC2)nc(-n2cccc2)n1,0%,>57
CC1=CC(C)C(/C=N/n2cnnc2)C(C)C1 (centres undefined),-4%,>57
COC(=O)c1ccc(C)c(N(CCO)CCO)c1,-4%,>57
COc1ccc2[nH]cc(C(=O)CN3CCN(C4CCCCC4)CC3)c2c1,·,>57
CCOc1ccccc1N1CC(O)=C(c2nc3ccccc3s2)C1=N,?,>57
Cc1nn(CCC(=O)O)c2nc(-c3cccnc3)cc(C(F)(F)F)c12,-13%,>57
Cc1ccc(S(=O)(=O)N[C@H]2COC(=O)C/C=C\[C@@H](C)COC(=O)C/C=C\[C@@H]2C)cc1,-7%[8 µM],·
COCCn1c(SCC(=O)Nc2cccc(C(=O)OC)c2)nc2ccccc2c1=O,-9%,>57
O=C(Nc1cc(N2CCOCC2)ncn1)NC1(C(F)(F)F)Oc2ccc(Cl)cc2O1 (centres undefined),4%,>57
Cc1ccc2c(c1)c(C)c(C)n2CC(O)Cn1nc(C)cc1C (centres undefined),4%,>57
O=C(Nc1cccnc1)c1ccc(COCC(F)(F)F)cc1,7%,>57
COc1ccc(S(=O)(=O)Nc2ccc(O)c3ccccc23)cc1,·,?
Cc1ccc(C)c(S(=O)(=O)NCc2ccc(C(=O)N3CCN(C)CC3)cc2)c1,-5%,>57
CN(C)C1(c2nnnn2-c2ccc(Cl)cc2)CCCCC1,-13%,>57
Cc1c(Cl)cccc1NC(=O)CSc1nnc(CCNC(=O)OC(C)(C)C)o1,-14%,>57
CCOC(=O)CCN1C(=O)[C@H]2[C@H]3[C@H](O)[C@H](O)C/C(=N/NC(=O)OCC)[C@@H]3CC[C@@H]2C1=O,-12%[8 µM],·
COc1ccc(-c2nnn(CC(=O)c3ccc4c(c3)OCCO4)n2)cc1OC,-1%,>57
O=C(NCc1ccc(F)cc1)c1ccc(CS(=O)(=O)Cc2ccccc2F)o1,-8%,>57
O=C(NC(Cc1ccccc1)C(=O)OCC(=O)N1CCc2ccccc21)c1ccco1 (centres undefined),11%,>57
Clc1ccc([C@@H](c2ccccc2Cl)C(Cl)Cl)cc1,?,>57
O=C(NCCSCc1ccco1)c1ccc(CN2CCOCC2)cc1,-5%,·
N#Cc1c(NC(=O)Cn2c(=O)oc3ccccc32)oc(-c2ccccc2)c1-c1ccccc1,10µM*,>57
Cn1c(Cc2ccc3c(c2)OCO3)nnc1SCC(=O)N1CCc2ccccc2C1,4%,>57

Later entries
Molecule,LT uptake inh,Prx2 Sm inh
CCCn1c(SCC(=O)c2cc(OC)ccc2OC)nc2c1c(=O)n(C)c(=O)n2C,-5%,>57
Cn1c(=O)c2c(ncn2Cc2ccc(Cl)c(Cl)c2)n(C)c1=O,?,>57
CCN1CCN(C(=O)CN(c2cc(OC)ccc2OC)S(C)(=O)=O)CC1,?,>57
c1cncc(C2CC(c3cccs3)n3ncnc3N2)c1 (centres undefined),8%,>57
O=S(=O)(Cc1ccc(Cl)cc1)NCC1CCCO1 (centres undefined),-9%,>57
O=C(CSc1nnc(Cc2cc(=O)[nH]c(=O)[nH]2)n1-c1ccc(F)cc1)NC1CCCC1,-2%,>57
c1ccc(-n2cnnc2SCc2cn3ccccc3n2)cc1,0%,>57
CC(=O)OCC1OC(C#CC2=CCCCC2)C=CC1OC(C)=O (centres undefined),-6%[8 µM],·
Cc1cc2c(s1)c1cnn(Cc3ccccc3F)c(=O)c1n2C,21%,>57
O=C(O)c1ccc(-n2nc(C(F)(F)F)c3c2-c2ccoc2CC3)cc1,?,>57
CCOC(=O)C1=C(c2ccccc2)Nc2nc(C)nn2C1c1cccc(OC)c1OC (centres undefined),17%,>57
Cc1cccc(CNc2ncnc3ccc(-c4ccc(C(=O)N(C)C)cc4)cc23)c1,-25%,>57
CCCC(c1nnnn1C(C)(C)CC)N1CCN(C2CCCC2)CC1 (centres undefined),6%,>57
CC(C)C[C@H](NC(=O)NCCc1ccc(Cl)cc1)C(=O)O,3%,>57
CCCN1CCN(CCCNC(=O)Cn2cc3c(n2)CCCC3)CC1,-5%,>57
CCn1c(=O)c2ccccc2n2c(SCC(=O)NCc3cccs3)nnc12,-6%,>57
N#Cc1nc(-c2ccco2)oc1NCc1ccc(F)cc1,3%,>57
CCOC(=O)N1CCC(Nc2c(-c3ccc(C)c(C)c3)c(=O)c2=O)CC1,10%,>57
CC(C)C(c1nnnn1C1CCCC1)N1CCc2ccccc21 (centres undefined),?,>57
N#Cc1cc2c(nc1SCC(=O)N1CCCCC1)CCCCC2,-2%,>57
O=C(O)c1ccc2noc(-c3ccccc3)c2c1,18%,>57
S=c1nc(-c2ccccc2)n(CCCn2ccnc2)c2c1CCCC2,1%,>57
Cc1cc(C(=O)Nc2c(F)cc(F)cc2Br)no1,-5%,>57
O=S(=O)(NCc1ccco1)N1CCOCC1,-2%,>57
COCCN1Cc2cccc(C(=O)Nc3c(C)cccc3C)c2C1=O,0%,>57
O=C1OCc2cccc3cccc1c23,-8%,>57
CCOc1cc(C)c(S(=O)(=O)N2CCCC2)cc1C,8%,>57
O=S(=O)(NC(=NC1CCCC1)C(F)(F)F)c1ccccc1,-5%,>57
O=C(CN1CCC(n2nnc3cc(F)ccc32)CC1)N1CCc2ccccc2C1,?,>57
COc1ccc(OC)c(C2C(C(N)=O)=C(C)Nc3nc(CCCO)nn32)c1 (centres undefined),-3%,>57
COc1ncc2nc(C)c(=O)n(C[C@H]3CCCO3)c2n1,0%,>57
COc1ccccc1NC(=O)CSc1nnc(Cn2cnc3ccccc32)n1C,?,>57
O=C(CC1(O)C(=O)Nc2ccc(Br)cc21)c1ccc2c(c1)OCO2 (centres undefined),11%,>57
Cc1ccc2c(c1)N(CCC(=O)NCc1cccnc1)C(=O)CO2,9%,>57
c1cncc(-c2nn3cnnc3s2)c1,·,>57
CCC(C)N=C1SCC(C)(/C=N/O)S1 (centres undefined),-2%,>57
CCOCCn1c(SCCc2ccccc2)nc2c1c(=O)[nH]c(=O)n2C,-3%,>57
Cc1ccc(-n2nnnc2SCC(=O)Nc2ccccc2N2CCCCC2)cc1C,?,>57
COc1ccccc1C(c1nnnn1C1CCCC1)N1CCN2CCCC2C1 (centres undefined),?,>57
CCn1c(=O)c2cc(C(=O)N3CCOCC3)sc2c2ccccc21,-16%,>57
CC(=NCCCn1ccnc1)C1=C(O)c2ccccc2C1=O,?,>57
CC1(C)C(=O)OC(c2cc(Br)ccc2O)C(C)(C)C1=O (centres undefined),-30%,·
O=C(Cc1ccc(Cl)c(Cl)c1)OCCN1CCCC1,-3%,>57
Cc1ccc(C)c(S(=O)(=O)C(C#N)c2nc3ccccc3nc2N2CCOCC2)c1 (centres undefined),-12%,>57
Cc1cc(NC(=O)CSc2ccc3nnc(-c4cccs4)n3n2)no1,11%,>57
Cc1ccc(NS(=O)(=O)c2cc(C(=O)N3CCOCC3)ccc2C)cc1C,-7%,>57
COc1ccc(CN(Cc2ccccn2)C(=O)CN2C(=O)COc3ccccc32)cc1,2%,>57
Cc1ccc(SCc2nc(-c3ccncc3)no2)cc1,8%,>57
Cc1ccc(S(=O)(=O)N2c3ccc(S(N)(=O)=O)cc3CC2C)cc1 (centres undefined),·,>57
COc1ccc(-c2ccc(=O)n(CC(=O)N3CCN(c4ccccc4OC)CC3)n2)cc1,-1%,>57

The results go on:
Molecule,LT uptake inh,Prx2 Sm inh
CCN1C(C)=C(C(=O)OC)C(c2ccccc2)N2C(=O)[C@@]3(C(=O)OC)O[C@@]12C1C(=O)N(c2ccccc2)C(=O)C13 (some centres undefined),-9%[8 µM],·
O=C(O)C[C@@H](C(=O)O)C1c2ccccc2-c2ccccc21,0%[8 µM],>57
Cc1occc1C(=O)Nc1ccc2c(c1)CCC2,3%,>57
Cc1cc(C)n2nc(Cc3ccccc3)nc2n1,17%,>57
COC(=O)c1ccc2c(c1)NC(=O)C1CCCN21 (centres undefined),?,>57
c1cncc(CNc2ncncc2-c2ccc3c(c2)OCO3)c1,4%,>57
COc1ccc(Cc2nnn(CC(=O)O)n2)cc1,8%,>57
O=C(N/N=C\c1cccc(O)c1)c1ccncc1,-8%[8 µM],>57
Cc1ccc(C)c(Cn2c(C(C)O)nc3ccccc32)c1 (centres undefined),5%,>57
CC(=O)[C@@H]1CC[C@@H]2[C@@H]3CC=C4C[C@H](OS(=O)(=O)O)CC[C@@]4(C)[C@H]3CC[C@]21C,?,>57
CCOCCCNC(=O)C1c2ccccc2C(=O)N2CCc3ccccc3C12 (centres undefined),12%,>57
COc1ccc(CN(Cc2ccncc2)C(=O)CCC(=O)O)cc1,-16%,>57
O=C1CCCN1CN(C(=O)c1ccc2c(c1)OCO2)c1ccc(F)cc1,?,>57
CCOc1c(OC)cccc1C1CC(=O)Nc2cc3c(cc21)OCCO3 (centres undefined),?,?
O=C(NCC1COc2ccccc2O1)C1CCCN(S(=O)(=O)c2cccc3nsnc23)C1 (centres undefined),-1%,>57
COC(=O)[C@@]1(Cc2ccc(OC)cc2)[C@@H]2[C@@H](CC(=O)[C@H]2CC(=O)C(=O)N2CCCC2)CN1C(=O)c1ccccc1,?,>57
CCN(CC)S(=O)(=O)c1ccc(C(=O)NC2=C(C(=O)OC)SCC2)cc1,-13%,>57
O=C(Cn1cnc2c(nnn2-c2ccccc2)c1=O)NCC1CCCO1 (centres undefined),6%,>57
COc1ccc(C2CC(c3ccccc3)Nc3nc(NC(=O)c4cccs4)nn32)cc1 (centres undefined),?,>57
Cc1ccc(S(=O)(=O)NC(=O)NN2CCCCCC2)cc1,2%[3.58 µM],>57&>57
CCc1nc2c(c(=O)[nH]1)C1(CCCC1)Cc1ccccc1-2,0%,>57

Single records (already shown).
O=C(O)CCC(=O)OCC1CCCO1 (centres undefined) is listed with LT uptake inh = -1%; Prx2 Sm inh = >57
c1cncc(C2CC(c3cccs3)n3ncnc3N2)c1 (centres undefined) is listed with LT uptake inh = 8%; Prx2 Sm inh = >57
COc1ccccc1C(c1nnnn1C1CCCC1)N1CCN2CCCC2C1 (centres undefined) is listed with LT uptake inh = ?; Prx2 Sm inh = >57

An excerpt, so the mix of outcomes need not match the whole.
